Compound activity: PubChem BioAssay, ICCB-Longwood Screening Facility, Harvard Medical School
AID504770: E. coli YBA685 growth inhibition, screen for V. cholerae RctB inhibitors; E. coli YBA685 rctB-dependent plasmid, OD600 growth, 3 h; hits give low values; z-score (concentration not given with the values); 130,000 tested, 0.27% active; AID 504770;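 active = z-score under -2 on both plates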;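 also: wells of about 30 µL received 100 nL stock; score is relative to mean and SD of the test wells; the first replicate is given; strong numbers were not always called active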
Ba CapD inh: CapD enzyme inhibition; purified CapD enzyme, fluorescence intensity read-out; hits give low values; some hits fall short of the stated cut; z-score (concentration not given with the values); 140,000 tested, 0.23% active; AID 492967;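 active = z-score under -4 in either of two replicates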;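 also: stock transfer was 100 nL into about 40 µL; score is relative to mean and spread of the plate; one replicate is shown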
An asterisk follows results filed as active; x = no result given; & = joins results of further samples.

SMILES | AID504770 | Ba CapD inh
O=C(O)c1ccccc1C(=O)Nc1cc(-c2ccccc2)[nH]n1 | -0.5 | 0.73
CCN(CC)CCOC(=O)C1(C2CCCCC2)CCCCC1 | 0.65 | -0.94&-0.385
O=C(NCNC(=O)NC1C(=O)NC(=O)N1CO)NC1C(=O)NC(=O)N1CO (centres undefined) | x | 0.03
O=C1NCCNC1CC(=O)N1CCN(c2ccccc2)CC1 (centres undefined) | 1.45 | -0.245
OC(COc1cccc2ccccc12)CN1CCOCC1 (centres undefined) | 0 | x
Cc1noc(C)c1/C=C/C(=O)Nc1ccccc1C(C)(C)C | 0.95 | x
Cn1c(N)c(C(=S)NC(=O)C(C)(C)C)c(=O)[nH]c1=O | 0.4 | x
CCCN=C1NC(=O)C(CC(=O)Nc2ccccc2Cl)S1 (centres undefined) | -0.7 | x
N#Cc1ccc(C(=O)OCc2nc3ccccc3s2)cc1 | -0.4 | 0.035
CCOc1ccc(C2=CC(c3cccc(OC)c3)c3ccccc3O2)cc1 (centres undefined) | -0.85 | 0.695
COc1ccc(N=Cc2ccc3ccccc3c2)cc1 | -0.9 | 1.78
O=C1/C(=C\c2ccsc2)N2CCC1CC2 | 1.05 | -2.03
O=C(CCc1nnc(-c2ccccc2)o1)c1ccc(Cl)cc1 | 1.9 | x
c1ccc(Cn2c(Sc3nnnn3-c3ccccc3)nnc2-c2ccccc2)cc1 | -0.8 | 0.555
COC(=O)C1=C(C)NC(=O)/C1=C\c1ccc(C)cc1 | 2.6 | x
CCN(CC)c1ncnc2sc(C)c(C)c12 | 0.2 | -0.275
NC(=O)C1CCN(Cn2nnc3ccccc32)CC1 | 0.8 | -0.305
N#CC(C#N)=Cc1ccccc1N1CCN(Cc2ccccc2)CC1 | x | -0.955
O=C(CCc1ccc(S(=O)(=O)N2CCOCC2)cc1)N/N=C/c1ccco1 | -0.7 | x
O=C(CSCc1ccccc1)Nc1nnc(SCC(=O)N2CCCCCC2)s1 | -0.1 | -0.495

An excerpt of these results, comma-delimited.
SMILES,AID504770,Ba CapD inh
O=C(CSCc1ccccc1)Nc1nnc(SCC(=O)N2CCCCCC2)s1,-0.1,-0.495
O=C(NCNC(=O)NC1C(=O)NC(=O)N1CO)NC1C(=O)NC(=O)N1CO (centres undefined),x,0.03
O=C(O)c1ccccc1C(=O)Nc1cc(-c2ccccc2)[nH]n1,-0.5,0.73

Later entries.
SMILES | AID504770 | Ba CapD inh
Cc1[nH]c2c(NC(=O)c3cccc(C(F)(F)F)c3)cccc2c1C | x | -0.75
O=C(/C(=N/Nc1ncnc2sc3c(c12)CCCC3)c1ccco1)c1ccco1 | 0.95 | x
Clc1ccc(C2Oc3ccc(Br)cc3C3CC(c4cccs4)=NN32)cc1 (centres undefined) | x | 1.48
CC(=O)Nc1ccc(C(=O)N2CCc3ccccc3C2)cc1 | 0.4 | x
CS(=O)(=O)N1Cc2ccccc2CC1C(=O)OCC(=O)NCc1ccccc1 (centres undefined) | 0.75 | x
O=C(Nc1cc(C(F)(F)F)ccc1-n1cncn1)C1=NN(c2ccccc2)C(=O)CC1 | 0.8 | x
Cc1ccc(N2C(=O)/C(=C/c3ccc(-c4ccc(Br)cc4)o3)C=C2c2ccccc2)c(Br)c1 | x | 2.48
COc1ccc(/C=C/C(=O)N2CCC(c3ccccc3)C2)cc1 (centres undefined) | -1.15 | -0.035
CCCC(=O)Nc1ccc2c(c1)nc1n2CCN(Cc2ccccc2)C1 | 0.65 | 10.2
CC1=C(C)CC(C(=O)NCc2c(F)cccc2Cl)C(C(=O)O)C1 (centres undefined) | 0.25 | 1.42
Cc1ccc(-c2nc3ncccc3n2OCc2cccc(C(F)(F)F)c2)cc1 | x | 21.7
O=C(NCc1ccccc1)NCC1CCN(CCc2ccccc2)C1 (centres undefined) | -0.2 | -0.23
N#Cc1c(-c2ccccc2)cc(-c2ccccc2)[nH]c1=O | x | -1.69
CCOC(=O)C(C#N)C(=O)c1ccc(NC(=O)c2ccccc2)cc1 (centres undefined) | 1.95 | 0.155
CSc1ccc(CN(C)C(C)C(=O)Nc2cccc(C#N)c2)cc1 (centres undefined) | -0.6 | x
Cc1ccn2c(=O)c(C3=Nc4ccccc4C3=O)c(O)nc2c1 | 0.55 | 0.555
COc1ccc(C)cc1S(=O)(=O)N1CCCC(C(=O)NCC2CCCO2)C1 (centres undefined) | -1.2 | 0.625
CCc1ccc2[nH]c(C)c(CN3CCCCC3)c(=O)c2c1 | -0.35 | 0.82
COc1ccccc1NC(=O)CSc1nc(-c2cccs2)cc(C(F)(F)F)c1C#N | x | 68.7
Cc1cc(C)nc(Sc2ccc(NC(=O)c3ccc(-c4ccccc4)cc3)cc2)n1 | x | -0.775
COc1ccc(-c2nc(C)c(CCNS(=O)(=O)c3ccc4c(c3)OCCO4)s2)cc1OC | 0.2 | -0.015
Cc1ccc2c(CC(=O)NCC3CCCCC3)coc2c1 | 0.9 | x
CCSc1sc(C(=O)OC)c2c1C(=O)CC(C)(C)C2 | x | 0
C=CCN(C(=O)c1cn(CC(C)C)c(=O)c2cc(OC)c(OC)cc12)c1ccccc1 | -0.8 | 0.04
CN(C)S(=O)(=O)n1cc(/C=C(\NC(=O)c2ccccc2)C(=O)N2CCOCC2)c2ccccc21 | 0.25 | 0.535
COc1ccc(C(=O)/C=C(\N)C(F)(F)F)c(O)c1 | -0.4 | -1.61
CC1CC(NNc2ccc(Br)cc2)NC(=S)N1 (centres undefined) | 0 | x
CCN(CC)CCCNC(=O)OCCN1CCN(Cc2cc3ccccc3o2)CC1 | x | 0.13
COC(=O)C1=C(C)N=c2s/c(=C/c3ccc(OC)cc3)c(=O)n2C1c1cccs1 (centres undefined) | -1.1 | 8.27
CCC(=O)n1nc(-c2ccccc2)nc1N | 1.8 | x
c1ccc(Nc2nc(N3CCCC3)nc(N3CCCC3)n2)cc1 | -0.45 | -0.345
O=C(Cc1ccccc1)N1CCN(CCCc2ccccc2)CC1 | 0.3 | 0.085
CC1CCN(C(=O)COC(=O)COc2ccccc2C#N)CC1 | -0.15 | x
Cc1cc2ncn(-c3ccc(S(=O)(=O)N4CCCC4)cn3)c2cc1C | -0.4 | x
Cc1cccc(NS(=O)(=O)c2cccs2)c1C | -0.15 | -0.51
O=C(O)CCN1C(=O)c2ccc(Oc3ccc4c(c3)C(=O)N(CCC(=O)O)C4=O)cc2C1=O | -0.3 | x
CC(=O)Nc1nccc(-c2cc(-c3ccccc3)no2)n1 | -0.7 | 0.265
COc1ccccc1NC(=O)CSc1nc(C(F)(F)F)cc(C)c1C#N | x | -0.14
COc1cc(OC)cc(N2C(=O)C=CC2=O)c1 | x | 0.51
Cc1cc(C)c(C#N)c(SCC(=O)Nc2nnc(-c3ccccc3)s2)n1 | x | 0.66

Arranged by SMILES length (smallest number first): 7 of the compounds above
SMILES | AID504770 | Ba CapD inh
CCC(=O)n1nc(-c2ccccc2)nc1N | 1.8 | x
CCSc1sc(C(=O)OC)c2c1C(=O)CC(C)(C)C2 | x | 0
CC(=O)Nc1nccc(-c2cc(-c3ccccc3)no2)n1 | -0.7 | 0.265
c1ccc(Nc2nc(N3CCCC3)nc(N3CCCC3)n2)cc1 | -0.45 | -0.345
COc1ccccc1NC(=O)CSc1nc(C(F)(F)F)cc(C)c1C#N | x | -0.14
Cc1cc2ncn(-c3ccc(S(=O)(=O)N4CCCC4)cn3)c2cc1C | -0.4 | x
CN(C)S(=O)(=O)n1cc(/C=C(\NC(=O)c2ccccc2)C(=O)N2CCOCC2)c2ccccc21 | 0.25 | 0.535

Fetched by structure from above (three):
SMILES | AID504770 | Ba CapD inh
CCC(=O)n1nc(-c2ccccc2)nc1N | 1.8 | x
Cc1cccc(NS(=O)(=O)c2cccs2)c1C | -0.15 | -0.51
CC(=O)Nc1nccc(-c2cc(-c3ccccc3)no2)n1 | -0.7 | 0.265

Following part
SMILES | AID504770 | Ba CapD inh
O=C(C1CCC(=O)N1Cc1ccccc1Cl)N1CCN(c2ccc(F)cc2)CC1 (centres undefined) | -0.45 | 0.41
CCOC(=O)C1=C(C)N=c2s/c(=C\c3ccc4c(c3)OCO4)c(=O)n2C1c1ccc(OC)c(OC)c1 (centres undefined) | x | -0.085
O=C(COC(=O)CSc1ccc(F)cc1)NC1CC1 | -0.1 | x
c1ccc(CN(Cc2cccs2)C(c2cccs2)c2nnnn2C2CCCC2)cc1 (centres undefined) | -0.35 | x
Cc1ccc(Cn2ccc(=O)c(Cc3c(Cl)cccc3Cl)c2C)cc1 | x | -0.515
CN(C)S(=O)(=O)c1cccc(COC(=O)c2ccc(Cl)cc2O)c1 | -0.6 | x
O=C(O)C1C2C=CC3(O2)C1C(=O)N1CCCOC13 (centres undefined) | -0.3 | x
Clc1ccc(OCOc2ccc(Cl)cc2Cl)c(Cl)c1 | x | 0.79
Cc1nc2ccccc2nc1OCC(=O)N(C1CCCCC1)C1CCCCC1 | -0.55 | x
COc1ccc2cc(CCNC(C)=O)c(=O)[nH]c2c1 | -0.4 | 37
Cc1cc(C)c2c(n1)sc1c(N3CCCCC3)ncnc12 | -0.05 | 42.1
O=C1CC(C(=O)c2ccccc2)N=C(Nc2ccc(Cl)cc2Cl)N1 (centres undefined) | -0.75 | 0.05
O=C(CN1C(=O)C2C3C=CC(C3)C2C1=O)NCCc1ccccc1Cl (centres undefined) | -0.95 | 0.775
Oc1oc(-c2ccc(Br)cc2)nc1/C=N/c1nc2ccccc2s1 | x | 0.38
Cc1cccc(NCN2C(=O)CSC2=O)c1C | -0.7 | 0.365
COc1ccc(S(=O)(=O)N2Cc3ccccc3CC2C(N)=O)cc1OC (centres undefined) | 0.4 | 0.785
CCOC(=O)c1cnc(SCc2ccccc2)nc1N | -0.15 | -0.09
CCNc1cc(N)[n+](CC)c2n[nH]c(N)c12 | -0.65 | -0.5
CCOc1ccc2nc3sc(C(=O)Nc4nonc4C)c(N)c3cc2c1 | 1.35 | x
COC(=O)C1=C(C)OC(N)=C(C#N)C12C(=O)Nc1ccccc12 (centres undefined) | x | -0.085
Cc1nn(-c2ccccc2)c2c1N(CC(=O)N1CCCCC1)C(=O)CS2 | 0.3 | 0.53
CCC(NC(=O)Cc1ccccc1)C(=O)O (centres undefined) | -0.7 | 0.325
O=C(Nc1ccc(Cl)cc1)C1CCCC1 | -0.15 | x
COc1cccc(C(C(=O)NC2CCCCC2)N(C(=O)c2ccccn2)c2cccnc2)c1 (centres undefined) | -2 | x
COc1ccc(OC)c(Sc2ccc3nnc(-c4ccccc4)n3n2)c1 | 0.8 | 0.25
COc1ccccc1-c1noc(-c2ccccc2C(=O)NCc2ccco2)n1 | -0.45 | -0.35
CCOC(=O)Nc1cc(C(C)(C)C)on1 | -1.2 | -0.13
CCOc1ccc(N(CC)C(=O)CN2C(=O)C3C4C=CC(C4)C3C2=O)cc1 (centres undefined) | -0.3 | 0.8
Cc1ccc(N2C(=O)N(CCN3C(=O)c4ccccc4C3=O)C(=O)C2C)cc1 (centres undefined) | 0.55 | x
O=S(=O)(c1ccc(-c2nc3ccccc3s2)cc1)N1CCCC1 | 0.4 | 1.23
NC1=NC(=Nc2ccc(Cl)cc2)c2ccccc21 | 0.25&0.4 | -2.19
Cc1ccc(-c2nnc(C)c(Sc3c(Cl)cccc3Cl)n2)cc1 | x | 0.04
Cc1cc(C)c2c(N)c(-c3nc4ccccc4[nH]3)sc2n1 | 0.85 | 1.28
COc1ccc(Nc2[nH]c(=O)sc2C2=c3cc(Br)ccc3=NC2=O)cc1 | x | 0.12
CCN(CC)CCNC(=O)c1sc2ncnc(N3CCc4ccccc4C3)c2c1C | x | 5.83
O=C(CN1C(=O)c2cccc3cccc1c23)NC1CCCCCC1 | -0.5 | -0.15
O=c1c2sc3ccccc3c2n(Cc2ccccc2F)c(=O)n1Cc1ccco1 | 1.1 | 14.3
C=C(Br)Cn1c(CC(C)C)nc2ccccc21 | 0.85 | -0.105
CCn1c2ccc(OC)cc2c2nc3ccccc3nc21 | 0.3 | 6.27
Cc1cccc(N=C2SCC(=O)N2c2cccc(C)c2)c1 | -0.85 | 4.27
CCOc1ccc(/C=N/n2cnc3ccccc3c2=O)cc1CN1CC2CC(C1)c1cccc(=O)n1C2 (centres undefined) | -0.1 | -0.51
CCCN1CCC(Nc2ccc3c(c2)CCN3C(C)=O)CC1 | x | -0.6
Cc1cccc(-n2nc3c(c2NC(=O)Nc2cccc(Cl)c2)CSC3)c1 | 0.25 | x
Cc1ccc(Nc2ncc(C(=O)N3CCCCCC3)c3ccccc23)cc1Cl | x | 0.455
CC1(C)CSC(=NCCc2ccccc2)N1C(=O)/C=C/c1ccco1 | -0.35 | x
CC(C)OC(=O)C(C#N)c1nc2ccccc2nc1N1CCN(c2ccccc2)CC1 (centres undefined) | 0.2 | x
Nc1ccccc1N=C(c1ccccc1)c1c[nH]n(-c2ccccc2)c1=O | -0.1 | x
CCn1c2ccccc2c2cc(C=Nc3ccc(Cl)cc3)ccc21 | -1 | 4.54
CN1CCN(c2ccc(NC(=O)c3ccco3)cc2)CC1 | -0.35 | -0.145
O=C(Cn1cncn1)c1ccc(Br)cc1Br | 1.05 | -0.565
COc1ccc(C2/C(=C(\O)c3ccc(C)cc3)C(=O)C(=O)N2CCC(=O)O)cc1 (centres undefined) | -0.55 | x
Cc1nn(Cc2ccccc2Cl)c(Cl)c1/C=C/C(=O)OCC#N | 0.4 | x
c1ccc2c(c1)[nH]c1nc(SCCN3CCOCC3)nnc12 | -0.65 | -0.54
COc1ccc(N2CCN(C(=O)c3sc4ncn(CC(=O)Nc5cccc(C(F)(F)F)c5)c(=O)c4c3C)CC2)cc1 | x | -0.66
Cc1ccc(NC2=NC(=S)N(c3ccccc3)C23CCC(C(C)(C)C)CC3)cc1 (centres undefined) | x | -0.135
CCOC(=O)C1CCN(C(=O)c2ccc3c(c2)nc(C)n3-c2ccc(F)cc2F)CC1 | x | 0.165
CN(C)c1ccc2nc3c(=O)n(CCc4ccccc4)c(=O)[nH]c3nc2c1 | 0.55 | 0.36
CC(=Nc1cccc2ccccc12)c1sc2ccccc2c1O | x | 0.175
